High-throughput results deposited in PubChem by several laboratories.
A1 inh = inhibitors of the anti-apoptotic protein A1, read as caspase activation; 330,000 compounds, 0.066% hits; MEF A1-2A-BIM cells, Caspase-Glo 3/7 luminescence, 3 h; percent of clofoctol response, vehicle zero; caspase activation, % (concentration not given with the values);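 active means over half of replicate activation scores above 10%, or exactly half above 10 with the replicate mean above 10; inconclusive means replicate mean below 10 yet half the replicates above 10; inactive means over half of replicates below 10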;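 further: wells of about 30 µL received 50 nL stock; many hits fall short of the cut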
LANA-H2B inh = blocks KSHV LANA binding to histone H2A/H2B; Q9QR71; cell-free LANA-H2A/H2B peptide, fluorescence polarization; inhibition, % (test concentration not listed); 320,000 compounds, 0.6% hits; in the data active means inhibition mostly above about 10%, no sharp cut-off; inactive means mostly below about 6.7%;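 further: stock transfer was 7.5 nL into about 10 µL; 0% = median of vehicle wells and 100% = median of positive control wells; one replicate is shown; the record names a cut of 25% in any replicate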
Target sequence (Q9QR71 whole entry, looked up): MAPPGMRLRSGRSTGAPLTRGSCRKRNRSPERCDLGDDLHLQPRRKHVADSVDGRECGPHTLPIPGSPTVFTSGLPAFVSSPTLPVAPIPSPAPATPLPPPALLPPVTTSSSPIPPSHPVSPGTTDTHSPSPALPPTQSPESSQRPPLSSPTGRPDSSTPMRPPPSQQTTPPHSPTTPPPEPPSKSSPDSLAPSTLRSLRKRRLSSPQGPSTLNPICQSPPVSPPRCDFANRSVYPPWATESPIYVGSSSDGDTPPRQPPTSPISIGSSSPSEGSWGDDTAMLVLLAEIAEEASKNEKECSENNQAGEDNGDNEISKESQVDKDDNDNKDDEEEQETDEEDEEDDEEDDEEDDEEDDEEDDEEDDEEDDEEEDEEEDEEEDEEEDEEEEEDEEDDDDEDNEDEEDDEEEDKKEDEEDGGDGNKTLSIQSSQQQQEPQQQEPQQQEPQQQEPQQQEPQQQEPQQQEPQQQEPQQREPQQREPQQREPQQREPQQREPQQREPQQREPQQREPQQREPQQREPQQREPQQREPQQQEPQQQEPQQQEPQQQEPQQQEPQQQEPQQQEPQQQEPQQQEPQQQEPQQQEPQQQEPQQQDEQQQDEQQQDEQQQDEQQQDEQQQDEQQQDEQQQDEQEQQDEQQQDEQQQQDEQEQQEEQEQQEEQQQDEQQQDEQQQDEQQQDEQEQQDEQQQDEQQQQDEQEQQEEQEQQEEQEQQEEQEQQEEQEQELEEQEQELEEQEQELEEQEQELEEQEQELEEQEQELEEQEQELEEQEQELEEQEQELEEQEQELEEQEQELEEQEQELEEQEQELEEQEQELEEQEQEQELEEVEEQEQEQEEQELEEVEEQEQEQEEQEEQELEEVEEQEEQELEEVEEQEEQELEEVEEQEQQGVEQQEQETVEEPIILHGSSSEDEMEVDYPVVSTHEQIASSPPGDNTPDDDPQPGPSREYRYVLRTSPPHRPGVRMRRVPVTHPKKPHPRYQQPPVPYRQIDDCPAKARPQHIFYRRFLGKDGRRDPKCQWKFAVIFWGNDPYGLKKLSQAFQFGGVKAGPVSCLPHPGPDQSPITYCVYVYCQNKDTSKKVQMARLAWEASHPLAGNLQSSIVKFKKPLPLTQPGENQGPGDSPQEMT
Vif TR-FRET = HIV-1 Vif–A3G interaction blockers – biochemical, TR-FRET, GST-Vif 1-94, biotin-A3G peptide, dose response retest, primary screen (AID 1117319); TR-FRET GST-Vif / biotin-A3G peptide binding; higher % means a stronger effect; test concentration not given here; strong numbers were not always called active; inhibition, %, or IC50 in µM where a hit was titrated; 260,000 compounds, 0.57% hits;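 active means above the screen mean plus three standard deviations and confirmed in dose response; inconclusive means results disagree or hit not tested in dose response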;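 further: Vif residues 1-94 fused to GST binding biotinylated APOBEC3G peptide 110-148; 0% = full assay without inhibitor and 100% = GST in place of GST-Vif; retest series ran down from 100 µM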
RanGTP-Impb inh = disruptors of Ran-importin-beta complex formation – biochemical, FRET, CFP-Ran, YFP-importin-beta, homogeneous, primary screen. cell-free CFP-Ran/YFP-importin-beta FRET ratio. inhibition, % (no concentration beside the values). 300,000 compounds, 1.1% hits. AID 2216;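 active means most replicates above 15%; inconclusive means exactly half above 15%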;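 further: 0% = DMSO wells and 100% = Ran loaded with GDP instead of GTP; wells of about 40 µL received 100 nL stock; the first replicate is given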
AF4-AF9 inh = blocks AF4 peptide binding to human AF9; AlphaScreen, biotin-AF4 peptide binding to FLAG-AF9; inhibition, % at 10 µM; 350,000 compounds, 0.47% hits; P42568; AID 651704;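 active means every replicate reaching a set inhibition limit, whatever the replicate mean, cut at about 25% in these data; inconclusive means mean inhibition reaches that limit but some replicates miss it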;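 further: 0% = plate neutral control median and 100% = total signal loss; the record names both 10 and 1 µM as test concentration; the first replicate is given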
T cruzi repl = T. cruzi replication inhibition | AID 1885 | 300,000 compounds, 1.4% hits | inhibition, % (concentration not given with the values) | T. cruzi beta-gal in NIH3T3, luminescence, 90 h;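 active means mean inhibition across valid replicates above about 55%, limit read from the data; inconclusive means mean below that limit but half or more replicates reach it; inactive means mean below it, under half of replicates reach it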;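 further: signal also drops with host cell toxicity which is not excluded here; 0% = plate median of DMSO wells and 100% = zero luminescence signal; higher percent means less beta-gal luminescence so fewer parasites; stock transfer was 50 nL into about 50 µL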
Calb FLC = affects C. albicans growth with fluconazole; C. albicans CaCi-2 (fluconazole-resistant clinical isolate) + fluconazole, Alamar Blue growth, 48 h; 300,000 compounds, 0.57% hits; growth inhibition, % (concentration not given with the values);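 active means most replicates above 75%; inconclusive means exactly half above 75%; inactive means most below 75%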;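 further: all wells also contain fluconazole at 8 µg/ml as a sub-toxic cotreatment; 0% = median of DMSO wells and 100% = median of geldanamycin control wells; wells of about 8 µL received 7.5 nL stock; the first replicate is given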
Beta apoptosis = beta cell apoptosis inhibition. INS-1E cytokine-induced death, ATP luminescence, 48 h; percent of positive-control rescue, neutral wells zero. protection from apoptosis, % (no concentration beside the values). 300,000 compounds, 0.8% hits;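 active means all replicates at 75% or more, or half of them and the mean; inconclusive means half reach 75% but not the mean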;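 further: 0% = cytokine-treated negative control wells and 100% = positive control rescue; higher means more ATP so stronger rescue from cytokine killing; wells of about 40 µL received 100 nL stock; the first replicate is given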
Active calls of the source: *; ? = inconclusive; . = no result given. No enrichment for hits. Share with any hit: about 4.3%.

mol	A1 inh	LANA-H2B inh	Vif TR-FRET	RanGTP-Impb inh	AF4-AF9 inh	T cruzi repl	Calb FLC	Beta apoptosis
O=C(CCNC(=O)N1CC(=O)Nc2ccccc21)NCc1ccc(F)cc1	0.0	2.1	-5%	-0.9	-3.5	1	0	1
C=CCn1c(-c2sccc2C)n[nH]c1=S	-0.2	0.7	-1%	0.2	-11	0	2	-1
Nc1nc(NCc2ccccc2)nc(Nc2cccc(F)c2)c1[N+](=O)[O-]	-0.3	-1.8	0%	.	.	8	10	-1
CCOC(=O)N1CCN(C(=O)c2ccc3c(=O)n(Cc4ccc(Cl)cc4)c(=S)[nH]c3c2)CC1	0.1	-3.2	0%	0.3	.	16	17	6
CCC(=O)N1CCc2cc(S(=O)(=O)CCC(=O)NCc3cccs3)ccc21	0.4	1.7	3%	2.0	.	-8	-2	-14
CCCS(=O)(=O)N1CCc2ccc(NC(=O)c3ccccc3Cl)cc2C1	-0.2	1.7	.	0.0	1.6	-4	4	-5
CCCC1=NN2C(=N)/C(=C\c3cc(C)n(Cc4ccccc4)c3C)C(=O)N=C2S1	0.0	-0.1	.	0.1	.	2	2	0
c1ccc(CCc2ccncc2)cc1	-0.6	-3.1	-5%	0.9	4.2	56*	8	-6

Overlap with the part before: 3 entries, then new ones.
mol	A1 inh	LANA-H2B inh	Vif TR-FRET	RanGTP-Impb inh	AF4-AF9 inh	T cruzi repl	Calb FLC	Beta apoptosis
CCCS(=O)(=O)N1CCc2ccc(NC(=O)c3ccccc3Cl)cc2C1	-0.2	1.7	.	0.0	1.6	-4	4	-5
CCCC1=NN2C(=N)/C(=C\c3cc(C)n(Cc4ccccc4)c3C)C(=O)N=C2S1	0.0	-0.1	.	0.1	.	2	2	0
c1ccc(CCc2ccncc2)cc1	-0.6	-3.1	-5%	0.9	4.2	56*	8	-6
O=[N+]([O-])c1ccc(COc2cccnc2)cc1	-0.8	-2.6	16%	-3.7	2.1	5	-5	9
O=C1NC(=Nc2ccc(F)cc2)CS1	1.1	0.2	26%	-2.3	-1.6	-7	-5	-3
O=C(CCl)Nc1cccc(Oc2cnccn2)c1	0.5	-2.1	3%	-1.7	-0.2	1	11	-6
COc1ccccc1N(CC(=O)Nc1c(C)n(C)n(-c2ccccc2)c1=O)S(=O)(=O)c1ccc(C)cc1	-0.5	2.2	1%	0.1	1.8	-4	-9	-7
CCOC(=O)c1c(C)[nH]c(C)c1S(=O)(=O)N(C)CC(=O)Nc1cccc(C)c1	-0.2	2.4	.	0.6	-1.8	9	2	-5
CCOc1ccc(C(=O)Nc2nnc(C)s2)cc1OCC	0.0	-2.1	-6%	0.7	.	2	6	1
COC(=O)C1=C(N)OC2=C(C(=O)CCC2)C1c1cccnc1 (stereo not drawn)	-1.2	1.3	5%	-0.7	-17	-3	13	-2
Cc1ccc(S(=O)(=O)NCC(=O)N(CC(=O)NCC2CCCO2)C2CCCC2)cc1 (stereo not drawn)	0.9	-4.7	2%	-2.8	.	-24	-6	-5
O=C(CN1C(=O)CCS(=O)(=O)c2ccccc21)NCc1ccccc1	-0.6	2.9	31%	1.7	.	3	-5	-3
O=C(CC(c1ccccc1)c1ccccc1O)NCc1ccco1 (stereo not drawn)	1.9	4.7	6%	2.1	.	4	0	-6
CC(=O)c1ccc(NC(=O)NNS(=O)(=O)c2ccc(F)cc2)cc1	0.5	1.8	8%	1.9	-0.6	3	-3	-1
Cc1occc1-c1nnc(SCC(=O)O)n1-c1ccccc1	1.0	0.0	31%	-1.2	-22	0	-2	11
COCCCNC(=O)CN1C(=O)COc2ccc(S(=O)(=O)N3CC(C)CC(C)C3)cc21 (stereo not drawn)	-0.2	3.0	.	-4.7	-3.1	9	-10	-4
CC(NC(=O)c1cc(COc2ccc3ncccc3c2)on1)c1ccc(F)cc1 (stereo not drawn)	-0.1	-5.0	-3%	2.2	3.1	18	12	105*
COC(=O)c1ccc(-c2ccco2)n1Cc1cccc(C)c1	0.0	-5.3	4%	-3.3	.	-6	5	0
Cc1cc(C(=O)NNS(=O)(=O)c2ccc(C(C)(C)C)cc2)nn1C(C)(C)C	-0.2	-3.7	3%	0.6	-3.3	3	-23	12
CCc1ccc(N2C(=O)C3C4C=CC(CC4)C3C2=O)cc1 (stereo not drawn)	-0.1	1.2	.	9.3	-1.2	1	-12	-2
CNC(=O)COC(=O)c1[nH]c(C)c(C(C)=O)c1C	0.1	-6.6	2%	2.8	.	-13	-4	-11
COc1ccc(C2C(C(C)=O)=C(Nc3ccccc3)CC(C)(O)C2C(C)=O)cc1OC (stereo not drawn)	0.0	-8.2	3%	5.2	.	-6	-25	0
O=C(Cc1cccc([N+](=O)[O-])c1)Nc1cccc(C(=O)N2CCCC2)c1	0.6	4.3	.	.	-6.3	.	.	-3
CCN(CC)S(=O)(=O)c1cc(NC(=O)CCNC(=O)c2ccco2)ccc1C	2.0	1.5	.	3.6	-6.5	-3	1	-1
CCOc1ccc(S(=O)(=O)c2cn(C)c3cc(OC)c(OC)cc3c2=O)cc1	-0.9	9.7	-26%	-0.5	0.1	-2	1	-1
Cc1nnc(SCC(=O)NCC(=O)Nc2ccc(F)c(F)c2F)n1Cc1ccccc1	0.3	5.9	6%	3.7	1.8	-3	7	4
C/C(Cl)=C/Cn1c(SC(C)C)nc2c1c(=O)[nH]c(=O)n2C	0.4	-4.5	5%	.	.	.	.	3
C/C(=N\Nc1ccccc1[N+](=O)[O-])c1ccccc1O	?	-2.4	.	-3.6	1.6	0	-14	-1
CC(NC(=O)c1ccnn1C)C1CCCO1 (stereo not drawn)	-0.2	-1.6	-8%	1.3	-0.2	-14	-5	0
O=c1n(Cc2ccccc2)nc2n1-c1ccccc1SC2	-0.5	-1.3	.	5.7	1.1	-1	2	-2
COc1ccc(/C=N/NC(=O)c2cccc(NC(=O)c3ccc(Cl)cc3)c2)c(OC)c1	0.2	-1.7	3%	-0.7	.	1	-9	3
COc1ccccc1NC(=O)C1CCN(S(C)(=O)=O)CC1	-0.6	8.7	.	4.2	-1.1	-1	-5	2
CNc1nc(SCc2ccccc2)nc(N2CCOCC2)n1	-1.3	-1.4	-1%	6.9	.	13	16	3
Cc1noc(C)c1NC(=O)N(C)C[C@H]1Oc2ccc(NC(=O)Nc3ccccc3)cc2C(=O)N([C@H](C)CO)C[C@@H]1C	0.4	0.9	-8%	.	-2.1	.	.	-1
CC1CCCC(n2c(=S)[nH]c3ccccc3c2=O)C1C (stereo not drawn)	-1.1	0.2	0%	5.8	.	16	-28	2
CC1CCN(CC(=O)N2c3ccccc3CC2C)CC1 (stereo not drawn)	1.6	0.9	-4%	-0.1	-0.1	7	-11	-4
COc1ccc(S(=O)(=O)C(C#N)c2nc3ccccc3nc2N2CCCCC2)cc1 (stereo not drawn)	-0.5	-3.2	14%	?	.	17	14	-11
O=P(c1cccs1)(c1cccs1)c1cccs1	-0.7	5.4	-1%	3.2	.	0	-8	-6
Cc1ccccc1CN1CCN(S(=O)(=O)c2cccc3nsnc23)CC1	0.3	-3.8	.	1.8	15	12	0	.
COc1ccc(S(=O)(=O)N2CCOC2CNC(=O)C(=O)NCc2ccco2)cc1C (stereo not drawn)	-0.3	16	1%	2.9	-6.6	-12	-2	-7
COc1ccc2c(c1)c(=O)oc1cc(OCC(=O)N3CCC(C)CC3)ccc12	1.0	2.7	55µM*	1.3	.	14	39	5
COCCn1c(SCC(=O)c2ccccc2)nc2c(c1=O)SC(C)C2 (stereo not drawn)	0.3	5.9	14%	0.5	.	6	16	-2
CC(=O)Nc1ccc(-c2cc(C(=O)O)c3ccc(C)cc3n2)cc1	1.0	-0.4	?	-3.4	-1.4	-7	-2	-7
C=CCN1C(=O)NC(c2ccc(OC)cc2)(C(F)(F)F)S/C1=C(\C#N)c1nnc(N2CCOCC2)n1-c1ccccc1 (stereo not drawn)	-1.7	-2.6	14%	2.1	1.1	-29	28	-3
O=C(NC1CC1)C1CCCN1S(=O)(=O)c1ccc2ccccc2c1 (stereo not drawn)	0.4	-2.3	1%	-1.4	.	-8	8	-2
CCN(CC)c1ccc(NC(=O)Nc2ccccc2)cc1	-6.4	-6.6	5%	0.9	25*	-7	-7	3
COc1ccccc1Nc1nc2ccccc2[nH]1	-3.9	-1.1	25%	-1.3	.	-22	0	3
Cc1cc(C)c(C#N)c(SC2CCCCC2=O)n1 (stereo not drawn)	-0.1	-3.3	2%	-1.5	-42	4	-7	8
CCc1nnc(NC(=O)c2cc(-c3ccccn3)nc3ccccc23)s1	0.9	-0.2	25%	7.4	-2.2	-5	1	-1
Cc1cccc(NC(=O)CSc2nc3ccc(NC(=O)CSc4nnnn4-c4ccccc4)cc3s2)c1C	1.7	-3.3	-6%	.	.	.	.	1
O=C(Cn1c(=O)c2sccc2n(Cc2cccc([N+](=O)[O-])c2)c1=O)NCCc1ccccc1	-0.9	-2.3	19%	1.6	-0.2	-9	-4	-2
COc1ccc(C(C2C(=O)CC(C)(C)CC2=O)C2C(=O)CC(C)(C)CC2=O)cc1	0.4	1.2	-9%	3.7	1.6	-16	1	-5
COC(OC)c1ccc(C#N)c(SCc2ccc(C)cc2)n1	0.5	2.6	2%	-0.4	-17	-7	12	-10
CCOC(=O)c1c(C)[nH]c(C(=O)COC(=O)CCS(=O)(=O)c2ccc(C)cc2)c1C	-0.3	2.4	0%	-0.2	-1.1	16	23	-3
COc1ccc(OCC(=O)Nn2c(-c3ccc(OC)cc3)nc3ccccc3c2=O)cc1	-0.4	1.8	.	-1.0	-4.0	-15	-18	-12
O=S(=O)(CCc1nc2ccccc2s1)c1ccc2ccccc2c1	0.0	-2.7	0%	0.3	.	-13	2	-3
COc1ccc(C(=O)NCc2nnc(SCC(=O)Nc3nc4ccccc4s3)o2)cc1	0.3	-0.2	3%	0.9	.	-4	5	5
CC(=O)N1CCN(C(=O)CNC(=O)c2ccc(Br)o2)CC1	-0.1	-8.4	.	3.0	2.0	-9	-8	4
Cc1ccc(C(=O)NCc2ccc3c(c2)OCO3)c(C)c1	0.5	9.5	.	1.3	1.3	2	-75	.
Cc1cc(C)c2cc(CN(CCCN(C)C)C(=S)NCc3ccccc3)c(=O)[nH]c2c1	0.0	1.1	19%	-0.3	3.7	53	12	2
CC1CCCN(C(=O)COC(=O)Cn2cnc3ccccc32)C1 (stereo not drawn)	-1.0	1.4	4%	.	0.1	.	.	-2
CC1=Nc2ccccc2/C1=C/c1nc(-c2ccc(C)s2)oc1O	-0.5	-4.0	-2%	37*	1.0	-5	-5	-4
